D2 ag: agonists of human D2 dopamine receptor (beta-arrestin); P14416; 0.084% of 360,000 active; activation, % (no concentration beside the values); DiscoveRx PathHunter D2 beta-arrestin, luminescence, 90 min; 100% = 57 uM dopamine signal; in the data active = activation above about 40%; inconclusive = about 15% to 40%; inactive = below about 15%; further: compound concentration not given in the record; the text of the record calls up to 30% inactive
Target sequence (P14416 whole entry, looked up): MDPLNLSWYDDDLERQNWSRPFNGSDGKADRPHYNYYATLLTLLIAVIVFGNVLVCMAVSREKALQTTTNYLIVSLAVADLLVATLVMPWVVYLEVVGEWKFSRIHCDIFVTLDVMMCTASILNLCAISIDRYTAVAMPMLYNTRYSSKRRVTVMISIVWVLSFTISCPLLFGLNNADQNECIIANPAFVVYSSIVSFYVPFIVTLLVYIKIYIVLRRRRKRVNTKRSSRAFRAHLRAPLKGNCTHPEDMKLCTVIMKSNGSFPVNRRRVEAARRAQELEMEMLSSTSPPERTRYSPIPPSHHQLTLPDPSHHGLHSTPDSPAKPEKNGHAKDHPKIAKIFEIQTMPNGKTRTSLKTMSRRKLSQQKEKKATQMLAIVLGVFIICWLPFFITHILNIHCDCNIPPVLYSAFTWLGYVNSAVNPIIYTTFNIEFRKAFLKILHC
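DiscoveRx PathHunter D2 beta-arrestin cells (2,100/well) attached overnight, then compound-stimulated 90 min at 37 C in HBSS/10 mM HEPES/0.1% Tween-20 buffer; beta-galactosidase complementation read by luminescence after 1 h at ambient temperature. Dopamine 57 uM final (EC100) as control.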
ClpP mod: qHTS Assay for Activators of ClpP | purified B. subtilis ClpP, FRET peptide cleavage, 20 min | Potency, µM (series often up to 57.5 µM), for the others: at the top dose activity change, negative = active | 1.9% of 340,000 active; active = well fitted falling curve with a large enough effect; inconclusive = small, poorly fitted or top-dose-only effect; inactive = no such curve, though single readings can be large or run the other way; further: potency means the concentration at half of the fitted maximal effect; the source files actives as falling curves though it sought activators and does not explain the sign; nearly all actives have a fitted effect of over 65% in size; many hits overshoot -100%
Target sequence (P80244 whole entry, looked up): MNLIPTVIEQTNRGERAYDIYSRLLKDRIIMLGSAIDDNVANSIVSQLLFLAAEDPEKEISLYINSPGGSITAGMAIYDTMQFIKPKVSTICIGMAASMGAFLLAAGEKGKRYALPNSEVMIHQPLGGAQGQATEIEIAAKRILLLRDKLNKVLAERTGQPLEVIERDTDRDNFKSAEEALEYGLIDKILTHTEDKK
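FRET quenching reversal measured ClpP activation: 10 microg/mL B. subtilis ClpP at pH 8 with the FRET-FV decapeptide, read at 430 nm after 320 nm excitation. The 20-min minus 0-min signal was scaled between DMSO/no-enzyme wells and ADEP (5.8 microM final).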
gsp ag: agonists of gsp mutant (McCune-Albright syndrome) | gsp mutant cells, cAMP HTRF, 30 min; control for the full effect not named in the record | Potency, µM (top dose mostly 76.9 µM), inactives show at the top dose activation (cAMP increase), actives largely listed as activators | 0.13% of 340,000 active | AID 624287; active = well fitted activation curve with a large enough effect; inconclusive = small, poorly fitted or top-dose-only effect, or another doubt; inactive = no such curve, though single readings can be large or run the other way; cell line not stated here;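 further: phosphodiesterase inhibitor Ro 20-1724 added with compounds to block cAMP breakdown; potency means the concentration at half of the fitted maximal effect; nearly all actives have a fitted effect of over 60% in size; about a fifth of the inactives were tested at one dose only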
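Cells in DMEM/10% FBS with G418 were pretreated with compounds in DMSO plus […] (300 uM stock) for 30 min at 37C. cAMP was measured by HTRF (cAMP-d2 plus anti-cAMP antibody-K) after 30 min at room temperature.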
gsp antag: antagonists of gsp mutant (McCune-Albright syndrome). Potency, µM (highest dose often 76.9 µM), without a hit: at the top dose activity change, negative = inhibition, usual class: inhibitors. gsp-mutant cells, cAMP HTRF, 30 min; control for the full effect not named in the record. 0.4% of 340,000 active. AID 624288; active = falling curve of any shape with a large fitted effect; inconclusive = falling curve, mostly with a smaller effect; inactive = flat or rising curve; cell line not stated here;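 further: intracellular cAMP measured with PDE inhibitor Ro 20-1724 present during compound exposure; potency means the concentration at half of the fitted maximal effect; on the % scale 0 is the no-effect control and ±100 the full control effect; nearly all actives have a fitted effect of over 65% in size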
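Measurement of cellular cAMP by homogeneous time-resolved fluorescence following a 30 min compound exposure at 37C. The PDE inhibitor […] was present throughout; the assay buffer was DPBS with 0.05% BSA and 0.005% Tween 20.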
Menin-MLL FL inh: displaces fluorescein MLL peptide from human menin; FP activity change, % at 61.4 µM; Fluorescence polarization, fluorescein-MLL peptide displacement from menin; 290,000 tested, under 10 active; inconclusive = falling polarisation curve, or a change in total fluorescence; inactive = total fluorescence flat and polarisation flat or rising; no compound was filed as active; the % refers to the polarisation; negative = inhibition;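 further: % of control where 0% means no effect; inhibitors lower the polarisation; unlabelled MLL peptide was the positive control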
PINK1 modulator: changes PINK1 expression; PINK1 immunofluorescence, high-content cytometry, 24 h; Potency, µM (doses to about 76.6 µM), without a hit: at the highest dose activation (PINK1 increase), most hits filed as activators; 0.2% of 410,000 active; AID 624263; active = well fitted activation curve with a large enough effect; inconclusive = small, poorly fitted or top-dose-only effect; inactive = flat fitted curve, though single readings scatter; cell line not stated here;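 further: potency means the concentration at half of the fitted maximal effect; % of control where 0% means no effect; nearly all actives have a fitted effect of over 65% in size; a mitochondrial uncoupler was the plate control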
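Stable cell line treated 24 h with compounds at 5 concentrations (CCCP controls), then fixed and immunostained for PINK1 plus nuclear and cell stains; PINK1 immunofluorescence quantified by laser-scanning microplate cytometry.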
Sfp inh: inhibitors of Bacillus subtilis Sfp phosphopantetheinyl transferase | Q9F4F7 | Biochemical Sfp PPTase activity, qHTS | Potency, µM, without a hit: max response, negative = inhibition, hits mostly inhibitors | 3.5% of 310,000 active | AID 1490; active means well fitted inhibition curve with a large enough effect; inconclusive means small, poorly fitted or top-dose-only effect, or another doubt; inactive means no such curve, though single readings can be large or run the other way;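 further: the enzyme is Sfp with the accession as filed and its product quenches rhodamine fluorescence; potency means the concentration at half of the fitted maximal effect; 0% = enzyme reaction without inhibitor and -100% = no enzyme wells; top concentration of the series not given in the record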
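Fluorescence-quenching assay with 15 nM Sfp, 5 uM rhodamine-CoA and 12.5 uM BHQ-2-labelled ybbR peptide in pH 7.6 Hepes/MgCl2 buffer. Enzyme was pre-incubated with compound for 15 min at room temperature. Rate was taken from the 30-min fluorescence change (525/598 nm).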
* hit, by the source's call; ? = inconclusive; / = not tested or not shown; & = joins results of further samples; [ ] = dose if it differs, or a comment.

SMILES	D2 ag	ClpP mod	gsp ag	gsp antag	Menin-MLL FL inh	PINK1 modulator	Sfp inh
CCOC(=O)c1ccc(NC(=O)c2c(O)[nH]c(=O)[nH]c2=O)cc1	0.8	-0.8%	17%	14%	?	3.8%	?
CCC1CO/C(=C(\C(Cl)=C(Cl)Cl)[N+](=O)[O-])N1Cc1ccc(Cl)nc1 (configuration not stated)	-5.4	0.4%	-83%[inhibitor]	1%	24	0.1%	6%
Fc1ccccc1N1CCN(Cc2c(F)cccc2F)CC1	4.4	-2.1%	17%	13%	4.7	27%[38.3 µM]	?
COc1ccc2c3c1OC1CC(O)C=CC31CCN(C)C2 (configuration not stated)	6.5&-1.2	0.0%	5%&0%	2%&9%	1.7&0.4	-1.0%&-0.6%	11%&20%
Cc1ccc(-n2c(O)c(C=N)c(=O)n(-c3ccc(C)cc3)c2=O)cc1	0.9	0.0%	3%	3%	8.9	-0.1%	19%
c1ccc2sc(N3CCNCC3)nc2c1	-2.7	/	7%[15.4 µM]	13%	0.7	-0.1%	23%
Cc1nccc2c1[nH]c1ccc(Br)cc12	-3.4	-4.5%	/	-3%	/	-0.3%	/
CC1(C)C(C(=O)NN2C(=O)c3ccccc3C2=O)C1(C)C	-2.7	-1.5%	?	4%	-1.8	0.6%	-9%
O=C(O)c1ccccc1NC(=O)N1C[C@H]2C[C@@H](C1)c1cccc(=O)n1C2	-3.2	4.7%	/	0%	-2.3	2.4%	8%
C/C(=N\NC(=O)c1ccncc1)c1c(O)n(Cc2ccccc2)c(=O)[nH]c1=O	3.2	-3.0%	-32%[inhibitor]	3%	?	-0.3%	11%
C=CCn1c(O)c(C(C)=NCCO)c(=O)[nH]c1=O	-4.9	-1.2%	3%	3%	-0.4	3.5%[38.3 µM]	15%
COC(=O)C12CCc3cc(OC)ccc3C1=CC(=O)C2 (configuration not stated)	-8.7	3.7%	14%	/	/	-2.0%	/

Whole records, quoted from the list.
`CCOC(=O)c1ccc(NC(=O)c2c(O)[nH]c(=O)[nH]c2=O)cc1` in the list: D2 ag: 0.8; ClpP mod: -0.8%; gsp ag: 17%; gsp antag: 14%; Menin-MLL FL inh: ?; PINK1 modulator: 3.8%; Sfp inh: ?
`Cc1ccc(-n2c(O)c(C=N)c(=O)n(-c3ccc(C)cc3)c2=O)cc1` in the list: D2 ag: 0.9; ClpP mod: 0.0%; gsp ag: 3%; gsp antag: 3%; Menin-MLL FL inh: 8.9; PINK1 modulator: -0.1%; Sfp inh: 19%

(cont.)
SMILES	D2 ag	ClpP mod	gsp ag	gsp antag	Menin-MLL FL inh	PINK1 modulator	Sfp inh
Cn1cc(CCC(=O)N2CCC3(CC2)OCCO3)c2ccccc21	-0.2	?	-28%	9%	1.3	-1.3%[38.3 µM]	19%
CSCCC(c1nnnn1-c1c(C)cccc1C)N1CCC(n2c(=O)[nH]c3ccccc32)CC1 (configuration not stated)	-0.4	-2.5%	/	/	/	0.6%	/
O=c1[nH]oc2c1CCNC2	-1.0	2.2%	/	8%	?	-1.0%&-0.4%	10%&21%&-12%&3%
COc1ccc2[nH]c(C)c(CCNCc3cc(OC)c4c(c3)OCO4)c2c1	3.1	-11%	0%	0%	/	-1.0%	/
COC(=O)C1=C(c2cccc(OCc3ccccc3)c2)C[C@@H]2CC[C@H]1N2C(=O)NCCOc1ccccc1	-3.9	-3.8%	-22%	-10%	/	-1.2%	/
Oc1ccc(/C=N/NP(=S)(c2ccccc2)c2ccccc2)cc1O	4.3	0.8%	-3%	7%	5.9	1.3%[38.3 µM]	-11%
N#CCCn1cc(C(=O)Nc2ccccc2Br)c(-c2ccc([N+](=O)[O-])cc2)n1	-6.3	-0.9%	-9%[15.4 µM]	-16%	1.9	5.2%	3%
COc1ccccc1-n1c(-c2ccccc2Br)nc2ccccc2c1=O	-2.4	/	?	-10%	-3.5	4.9%	-2%
COc1ccc(Cl)cc1N=Cc1c(O)n(C)c(=O)n(C)c1=O	-5.6	/	?	-1%	-8.1	2.0%	14%
NC1=NC(=O)N2CC12 (configuration not stated)	0.8	-26%	5%	-12%	-6.8	-0.3%	-6%
COc1ccc(CN2Cc3cnnn3-c3ccccc3C2C#N)cc1 (configuration not stated)	0.1	0.9%	/	3%	/	-1.5%	/
C/C=C1/C[N+]2(C)CCC34C(=C(C=O)[C@H]1C[C@@H]32)Nc1ccccc14 (some centres not stated)	-4.8	-3.5%	/	4%	/	0.6%	/
COC(=O)Nc1ccc(N=C(N)N[N+](=O)[O-])cc1	1.8	/	1%	11%	1.1	2.1%	7%
CC(NCc1ccccc1C(F)(F)F)C(O)c1ccccc1 (configuration not stated)	-4.8	/	6%	10%	-2.1	4.0%	5%
CCN(CC)c1ccc(/C=N/c2sc3c(c2C#N)C2CCN3CC2)c(O)c1	-8.3	4.5%	4%	4%	?	14%	?
Ic1ccccc1CN[C@@H]1C2CCN(CC2)[C@@H]1C(c1ccccc1)c1ccccc1	-4.0	0.0%	/	-3%	/	-0.5%	/
O=c1c2ccccc2[nH]c(=S)n1-c1ccc(Br)cc1	-2.7	/	25%	1%	0.4	4.6%	-8%
O=C1NC(=O)C(C2CCCCCC2)C(=O)N1	-1.6	/	-91%[inhibitor]	7%	/	-1.6%	/
O=Cc1cn(Cc2cccc([N+](=O)[O-])c2)c2ccccc12	-3.8	1.6%	-12%	-20%	2.3	-1.3%	?
CCOC(=O)[C@]12Cc3c(cc(OC)c(OC)c3OC)[C@H]1N(Cc1ccccc1)C(=O)c1ccccc12	-1.5	-2.9%&1.6%	-17%	-6%	/	3.8%	/
CC(C)OC1CCCC(O)C1CC(=O)O (configuration not stated)	-2.1	0.9%	9%	6%	-0.1	-0.6%	3%
N=c1sccn1Cc1ccc(Cl)cc1Cl	0.5	1.8%	-9%[15.4 µM]	11%	-1.3	-2.5%	-13%
CC1CN(O)C2CCc3c(no[n+]3[O-])C12O (configuration not stated)	-0.4	2.8%	-11%	7%	3.0	5.1%	-2%
O=C(CN1CCOCC1)c1ccc(Br)cc1	-13	/	-30%	10%	-12	3.5%	-9%
COc1ccc(-c2cc(C(=O)N3CCC4(CC3)OCCO4)c3ccccc3n2)cc1	-3.1	4.0%	-3%	-3%	/	-0.4%	5%
CSc1ccc(CN2CCN(C(=O)COc3ccc(C)cc3)CC2)cc1	-3.4	1.1%	3.2µM*	0%	-1.7	-1.0%&-1.1%	-12%
CN1C(=O)N(C)C(=O)C(NS(=O)(=O)c2ccc(N)cc2)(c2ccccc2)C1=O	-4.8	2.0%	6%	0%	/	0.4%	/
Cc1ccc(OC(=O)N(C)C[C@@H]2OCc3cnnn3CCCC(=O)N([C@H](C)CO)C[C@@H]2C)cc1	-3.6	1.2%	-1%	/	/	1.2%	/
COc1ccc(NC2=NCCCS2)cc1OC	0.5	/	-5%	2%	/	-0.9%	3%
COc1cccc(C2C([N+](=O)[O-])=C(N)Oc3c2c(=O)oc2ccccc32)c1 (configuration not stated)	-0.4	0.2%	0%	13%	0.2	-0.5%	16%
COC(=O)C1=C(N)OC(C)=C(C(C)=O)C12C(=O)N(C)c1ccccc12 (configuration not stated)	-1.7	2.5%	0%	16%	0.9	-2.8%	-6%
C[C@H]1[C@@H](c2ccccc2)O[C@@H](c2ccccc2Br)N1C	-1.4	0.5%	1%	-3%	/	6.0%	/
COc1ccccc1N1CCN(Cc2cccc(Br)c2)CC1	-4.5	-0.1%	-14%	-1%	-6.3	16%	-25%
CN1CCN(c2ccc3c(c2)S(=O)(=O)c2ccccc2C3=O)CC1	-2.4	-1.8%	-13%	1%	/	1.0%	/
CC1(C)C(C(Cl)Cl)C2(Cl)C(Cl)C(Cl)C1(Cl)C2(Cl)Cl (configuration not stated)	/	/	/	/	1.6	2.5%	-4%
COc1ccc(C(=O)O)cc1OC	-5.7	-3.7%	/	8%	0.8	0.7%	5%
Cc1ccc(S(=O)(=O)N2Cc3cc(-c4cccc(F)c4)ccc3-n3nncc3C2)cc1	-2.3	-26%	/	/	/	2.9%	/
O=P(O)(O)Cc1c(Cl)cccc1Cl	2.7	/	-10%	12%	-2.4	5.4%	-6%
COc1ccc(C(=O)C2CCCN(Cc3ccc(C)s3)C2)cc1OC (configuration not stated)	2.7	-2.7%	-9%	-3%	0.6	0.2%	18%
O=C1NC(=O)N(CCC2=CCCCC2)C(=O)/C1=C/c1cccs1	-9.9	-19%	1%[15.4 µM]	-4%	19	0.0%	-15%
COC(=O)C1=C(c2cccc(OC)c2OC)C[C@@H]2CC[C@H]1N2C(=O)NCCNC(C)=O	-1.6	0.0%	-37%[inhibitor]	8%	/	-1.5%	/
COc1cc(C(=O)N2C[C@H]3C[C@@H](C2)c2cccc(=O)n2C3)cc(OC)c1OC	-3.8	-16%	/	-9%	-0.2	-0.6%	21%
Cc1cc(Cl)ccc1OCC(=O)O	-1.4	-0.8%	/	1%	2.2	0.2%	26%
CSc1ccc(CN2CCN(Cc3ccccc3Cl)CC2)cc1	-3.0	-5.2%	-14%	3%	0.6	13%	22µM*
O=P(c1ccccc1)(c1nc2ccccc2s1)N1CCOCC1 (configuration not stated)	-2.3	-3.3%	-81%[inhibitor]	8%	3.5	0.1%[38.3 µM]	17%
c1ccc(N2CCC3(CCNCC3)CC2)nc1	/	/	/	/	-10	-0.9%	-7%
Cc1cccc(C(=O)Nc2ccc(Cl)cc2C(=O)c2ccccc2)c1	-2.2	0.1%	4%	-11%	-0.5	?	-3%
O=C1NCN(c2ccccc2)C12CCN(C(c1nnnn1C1CCCCC1)C1CC1)CC2 (configuration not stated)	-3.8	-3.0%	/	/	/	1.1%	/
C[C@H]1CN([C@@H](C)CO)C(=O)Cc2cc(NC(=O)Cc3ccccc3)ccc2O[C@H]1CN(C)S(=O)(=O)c1cccs1	-4.3	-1.0%	14%	-10%	/	0.6%	/
c1ccc2c(CNC3CCCCC3)c[nH]c2c1	-0.2	-0.2%	11%	10%	0.1	1.2%[38.3 µM]	6%

Some of the compounds tested (hit frequency here may not be typical).
